# YB-1 expr inh = YB-1 expression inhibition. U2OS, qRT-PCR YB-1 vs CDIP delta delta Cp, 16 h; hits give high values; zero = DMSO, each unit about twofold. delta delta Cp (YB-1 minus CDIP) (test concentration not listed). actives 0.37% (n = 30,000);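 active means delta delta Cp rounded down to an integer at or above 3, about 3 SD of DMSO wells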;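 further: higher means less YB-1 transcript or more CDIP transcript relative to DMSO; stock transfer was 100 nL into about 100 µL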
# Shh pathway inh = Sonic Hedgehog pathway inhibition; Shh-LIGHT2 Gli-luciferase reporter, 30 h; inhibition, % (test concentration not listed); actives 2.1% (n = 22,000);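 active means replicate mean of 65% or more; inconclusive means mean lower but half the replicates past it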;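 further: pathway switched on by Shh-conditioned medium diluted 1 in 25 in low serum; 100 nL library stock added to about 40 µL; 0% = median of neutral wells and 100% = positive control level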
# PD-1 reverse act = activators reversing PD-1 mediated T-cell inhibition; primary human CD4 T cells, PD-L1 beads, CellTiter-Glo 96 h; activation, % (no concentration beside the values); 29,000 tested, under 10 active;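 active means replicate mean of 50% or more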;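 further: 0% = median vehicle wells and 100% = positive control; 100 nL library stock added to about 50 µL; numbers are from one replicate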
# MITF inh = inhibitors of MITF; inhibition, % (test concentration not listed); AID 2240; actives 0.28% (n = 37,000); TRPM1 promoter luciferase, luminescence, 24 h;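 active means most replicates at 85% or more, or half of them and the mean; inconclusive means half reach 85% but not the mean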;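 further: human melanocyte line stably carrying TRPM1 promoter luciferase reporter; 0% = vehicle wells and 100% = a positive control; the first replicate is given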
# The depositor's hits bear a star; u = inconclusive; x = not tested or not shown; & = joins results of further samples.
# Abbreviations: A = YB-1 expr inh; B = Shh pathway inh; C = PD-1 reverse act; D = MITF inh
CNC(=O)CSP(=S)(OC)OC
  A = -0.251	B = -27.5	C = x	D = -17.2
C[C@]12CCC(=O)C=C1C=CC1C2CC[C@@]2(C)C1CC[C@@]2(O)CCC(=O)O (stereo partly specified)
  A = 0.301	B = -37.5	C = x	D = 1.0
Cc1cc(OC(=O)N(C)C)cc(=O)n1C
  A = -0.00143	B = -6.3	C = -0.4	D = -27.6
CCc1c(C(=O)OC)ncc2[nH]c3cc(OC)c(OC)cc3c12
  A = -0.68	B = -73.3	C = x	D = -25.3
Cn1cccc1CNCCc1ccc(F)cc1
  A = -0.384	B = 9.9	C = -0.1	D = -5.4
CCCCC/C=C\C/C=C\C/C=C\C/C=C\CCCC(N)=O
  A = 0.278	B = -26.4	C = x	D = 7.3
CN1CCN(C(=O)COc2ccc(S(=O)(=O)NC3CCCCC3)cc2Cl)CC1
  A = x	B = x	C = 0.3	D = 5.6
O=c1c2ccccc2nc(CSc2ccccn2)n1-c1ccccc1Cl
  A = x	B = x	C = 2.3	D = -4.2
N#CC(C#N)=Cc1ccc(O)cc1
  A = -1.13	B = 56.6	C = -1.7	D = -3.0
CO[C@@H]1[C@H](O)[C@@H](O[C@@H]2C[C@H]3CC[C@@H]4C(CC[C@]5(C)[C@@H](C6=CC(=O)OC6)CC[C@]45O)[C@@]3(C)[C@H](O)C2)O[C@H](C)[C@@H]1O[C@@H]1O[C@H](CO)[C@@H](O)[C@H](O)[C@H]1O (stereo partly specified)
  A = 0.177	B = -11.4	C = -16.4	D = 29.9
CC(=O)Oc1ccc(/C=C/c2cc(OC(C)=O)cc(OC(C)=O)c2)cc1
  A = 0.113	B = -12.5	C = x	D = 84.0
CC1(C)C2CC(=O)[C@]3(C)C(CC[C@@]4(C)[C@H](c5ccoc5)OC(=O)C5OC543)[C@@]2(C)[C@@H](O)C[C@H]1O (stereo partly specified)
  A = -0.253	B = -38.2	C = x	D = -10.4
COc1cc(C)c(Oc2cc(C)cc(O)c2)c(O)c1
  A = -0.403	B = -7.3	C = 1.7	D = 9.2
Cc1cc(C)cc(C(=O)OC2CC3CCC(C2)N3C)c1 (stereo unspecified)
  A = -0.231	B = 14.4	C = 3.6	D = -5.6
CC(C)OC(=O)Nc1cccc(Cl)c1
  A = -0.0734	B = -28.1	C = x	D = -48.9
Cc1ccc(-n2c(CNCc3cccnc3)nc3ccccc3c2=O)cc1
  A = x	B = x	C = 2.0	D = -15.6
CCNCC(O)c1cccc(O)c1 (stereo unspecified)
  A = 0.033	B = -28.7	C = x	D = -1.2
COC1=CC(=O)O[C@@H](/C=C/c2ccccc2)C1
  A = -0.435	B = -66.0	C = x	D = -52.1
CCN1C[C@]2(C)CC[C@H](O)[C@]34C1[C@H](C[C@H]23)[C@@]1(O)C[C@H](OC)[C@H]2C[C@@H]4[C@@H]1C2O (stereo partly specified)
  A = -0.0579	B = -27.7	C = x	D = 3.8
COc1ccc2c3c1O[C@H]1[C@@H](O)CC=C4[C@@H](C2)N(C)CC[C@]431
  A = 0.244	B = -36.7	C = x	D = -7.6
CCC12CCCN3CCC4(c5ccc(OC)c(O)c5N(C(C)=O)C4CC1)C32 (stereo unspecified)
  A = -0.319	B = -3.9	C = 0.2	D = -39.4
c1ccc2c(c1)[nH]c1cnccc12
  A = -0.0266	B = 21.3	C = x	D = 2.1
CC(C)[C@]12O[C@H]1[C@@H]1O[C@]13[C@]1(O[C@H]1C[C@H]1C4=C(CC[C@@]13C)C(=O)OC4)[C@@H]2O
  A = -1.92	B = 28.9	C = x	D = 73.6
CN1CCN(CC(=O)Nc2ccc(Br)cc2C(=O)c2ccccc2)CC1
  A = x	B = x	C = -1.7	D = -12.7
CCN1C[C@]2(C)CC[C@H](OC)[C@@]34C1[C@@]1(OCO[C@@]15C[C@H](OC)[C@H]1C[C@]3(O)[C@@H]5[C@H]1OC)[C@@H](OC(C)=O)[C@H]24
  A = -0.288	B = 3.5	C = x	D = -5.9

# (listing goes on)
# Abbreviations: A = YB-1 expr inh; B = Shh pathway inh; C = PD-1 reverse act; D = MITF inh
CCC(C)/C=C(C)/C=C/C1=CC2=C(Cl)C(=O)C(C)(OC(C)=O)C(=O)C2=CO1 (stereo unspecified)
  A = -0.297	B = -14.6	C = 1.9	D = 3.8
CCC(O)CC1CCCC(CC(O)c2ccccc2)N1C (stereo unspecified)
  A = 0.164	B = 7.6	C = 1.4	D = -6.1
Cc1nnc2ccc(-c3cccc(C(F)(F)F)c3)nn12
  A = 0.0961	B = 6.4	C = x	D = -21.3
CN(CC(=O)Nc1ccc(Cl)cc1C(=O)c1ccccc1)S(=O)(=O)c1ccc(Cl)cc1
  A = x	B = x	C = -0.6	D = 10.7
CN1CCN(Cc2cc(C(C)(C)C)c(O)c(C(C)(C)C)c2)CC1
  A = 0.066	B = 11.5	C = -4.5	D = -1.9
O=C(c1ccco1)c1cn(CCCOc2ccccc2)c2ccccc12
  A = x	B = x	C = -0.6	D = -0.1
CCCN[C@@H]1CCc2c(OC)cccc2[C@@H]1C
  A = -0.238	B = -16.8	C = x	D = 5.3
CCCCSP(=O)(SCCCC)SCCCC
  A = 0.152	B = 7.8	C = x	D = 1.8
COc1c2c(c(CC=C(C)C)c3oc(=O)c(-c4ccc(O)cc4)c(O)c13)OC(C)(C)C=C2
  A = -0.114	B = 23.9	C = x	D = -10.5
CC(C)c1cccc(C(C)C)c1O
  A = -0.502	B = -46.1	C = x	D = 4.3
COP(=S)(OC)Oc1ccc(SC)c(C)c1
  A = 0.136	B = -16.1	C = x	D = -2.8
O=C1NC(=O)C(CCc2ccncc2)(CCc2ccncc2)C(=O)N1c1ccccc1F
  A = x	B = x	C = -1.0	D = 3.7
O=C(Nc1ccc2c(C(F)(F)F)cc(=O)oc2c1)c1cc(Cl)cc(Cl)c1
  A = -0.376	B = -22.8	C = 0.6	D = 7.7
CO[C@H]1[C@H](O)[C@H](O[C@H]2CC[C@]3(C)C4CC[C@]5(C)[C@H](C6=CC(=O)OC6)CC[C@]5(O)C4CC[C@@H]3C2)O[C@@H](C)[C@@H]1O (stereo partly specified)
  A = -0.0119	B = -5.3	C = -34.9	D = 31.3
CC(=O)OC1C2CCC1C(N1CCCCC1)CC2 (stereo unspecified)
  A = -0.304	B = -10.7	C = 4.8	D = 0.8
COCc1cc(OC(=O)N(C)C)nc2c1c(C)nn2C
  A = 0.83	B = x	C = -0.1	D = -33.5
CCCCC/C=C\C/C=C\C/C=C\C/C=C\CCCCCC(=O)NCCO
  A = 0.165	B = -36.6	C = x	D = -10.1
CC1=CC(=O)C2=C(C)C[C@H](O)[C@@H]3[C@H](OC(=O)[C@H]3C)[C@H]12
  A = 0.0154	B = -1.6	C = x	D = 3.1
Fc1ccc(C(OCCN2CCN(C/C=C/c3ccccc3)CC2)c2ccc(F)cc2)cc1
  A = 0.451	B = 83.9*	C = x	D = 99.6*
COc1c(C(C)C)cc2c(c1O)[C@@]1(C(=O)O)CCCC(C)(C)C1CC2 (stereo partly specified)
  A = 1.07	B = -14.7	C = 0.9	D = -2.3
CC(=O)O[C@H]1CC[C@]2(C=O)[C@H]3CC[C@]4(C)[C@@H](C5=CC(=O)OC5)CC[C@]4(O)[C@@H]3CC[C@]2(O)C1
  A = -0.0663	B = 3.9	C = -23.4	D = 44.5
C=CCN1C(=O)/C(=C/c2cc(C)n(-c3ccccn3)c2C)C(=O)NC1=S
  A = -0.128	B = -8.8	C = 0.2	D = -11.1
C[C@@H]1CCOC(=O)C=CC=CC(=O)O[C@@H]2C[C@H]3O[C@@H]4C=C(C(=O)O)CC[C@]4(COC(=O)[C@H]1O)[C@]2(C)[C@]31CO1
  A = 1.59	B = 3.7	C = -5.9	D = 65.0
C=CC1C[N+]2([O-])CCC1CC2C(O)c1ccnc2ccc(OC)cc12 (stereo unspecified)
  A = 0.496	B = -37.3	C = x	D = x
Cc1cc(C(F)F)n2nc(C(=O)Nc3ccc(Cl)cc3C(=O)c3ccccc3)nc2n1
  A = x	B = x	C = 4.9	D = -2.4

# Reformatted comma-delimited: part of the list above.
SMILES,YB-1 expr inh,Shh pathway inh,PD-1 reverse act,MITF inh
COCc1cc(OC(=O)N(C)C)nc2c1c(C)nn2C,0.83,x,-0.1,-33.5
CCCCC/C=C\C/C=C\C/C=C\C/C=C\CCCCCC(=O)NCCO,0.165,-36.6,x,-10.1
CC1=CC(=O)C2=C(C)C[C@H](O)[C@@H]3[C@H](OC(=O)[C@H]3C)[C@H]12,0.0154,-1.6,x,3.1
Fc1ccc(C(OCCN2CCN(C/C=C/c3ccccc3)CC2)c2ccc(F)cc2)cc1,0.451,83.9*,x,99.6*
COc1c(C(C)C)cc2c(c1O)[C@@]1(C(=O)O)CCCC(C)(C)C1CC2 (stereo partly specified),1.07,-14.7,0.9,-2.3
CC(=O)O[C@H]1CC[C@]2(C=O)[C@H]3CC[C@]4(C)[C@@H](C5=CC(=O)OC5)CC[C@]4(O)[C@@H]3CC[C@]2(O)C1,-0.0663,3.9,-23.4,44.5
C=CCN1C(=O)/C(=C/c2cc(C)n(-c3ccccn3)c2C)C(=O)NC1=S,-0.128,-8.8,0.2,-11.1
C[C@@H]1CCOC(=O)C=CC=CC(=O)O[C@@H]2C[C@H]3O[C@@H]4C=C(C(=O)O)CC[C@]4(COC(=O)[C@H]1O)[C@]2(C)[C@]31CO1,1.59,3.7,-5.9,65.0
C=CC1C[N+]2([O-])CCC1CC2C(O)c1ccnc2ccc(OC)cc12 (stereo unspecified),0.496,-37.3,x,x
Cc1cc(C(F)F)n2nc(C(=O)Nc3ccc(Cl)cc3C(=O)c3ccccc3)nc2n1,x,x,4.9,-2.4

# An excerpt from above, limited to Shh pathway inh, PD-1 reverse act and MITF inh.
SMILES | Shh pathway inh | PD-1 reverse act | MITF inh
CC(=O)OC1C2CCC1C(N1CCCCC1)CC2 (stereo unspecified) | -10.7 | 4.8 | 0.8
CO[C@H]1[C@H](O)[C@H](O[C@H]2CC[C@]3(C)C4CC[C@]5(C)[C@H](C6=CC(=O)OC6)CC[C@]5(O)C4CC[C@@H]3C2)O[C@@H](C)[C@@H]1O (stereo partly specified) | -5.3 | -34.9 | 31.3

# (further entries)
# Abbreviations: A = YB-1 expr inh; B = Shh pathway inh; C = PD-1 reverse act; D = MITF inh
COc1ccc(C(CN(C)C)C2(O)CCCCC2)cc1 (stereo unspecified)
  A = -0.441&0.152	B = 20.8&33.9	C = 2.4	D = -4.9&6.1
Nc1ccc(Br)cc1C(=O)c1ccccc1
  A = -0.972	B = x	C = -2.6	D = -22.0
C=C(C)[C@@H]1[C@H]2OC(=O)[C@@H]1[C@]1(O)C[C@H]3O[C@]34C(=O)O[C@H]2[C@]14C
  A = 0.254	B = -52.0	C = x	D = -3.6
Clc1cncc(N2CCNCC2)n1
  A = 0.6	B = -44.9	C = 2.5	D = 2.3
COC(=O)C1=COC(C)C2CN3CCC4(C(=O)Nc5ccccc54)C3CC12 (stereo unspecified)
  A = -0.146	B = 10.2	C = 1.8	D = -5.5
C[C@]12CCC(=O)C=C1C=C[C@@H]1[C@@H]2CC[C@@]2(C)[C@H]1CC[C@@]2(O)CCC(=O)O
  A = 0.217	B = -8.5	C = 1.3	D = 4.6
C=C(C)[C@@]12O[C@@H]1[C@@]1(C)C(=C[C@H]2O)CC[C@@H](O)[C@@H]1C
  A = -0.34	B = -3.4	C = 0.5	D = -8.1
Clc1cccc(N2CCNCC2)c1
  A = 0.174	B = 8.1	C = x	D = 7.1
C=C1[C@]23C(=O)O[C@@H](C)[C@]2(O)C(=O)O[C@@]1(C)[C@H](OC(C)=O)C1=C(C)[C@@]2(C=CC(=O)OC2(C)C)CCC13C (stereo partly specified)
  A = 0.859	B = 9.5	C = 1.0	D = -12.5
CC12C/C(=C\c3ccccc3)C(=O)C[C@@H]1CCC1C2CCC2(C)C1CC[C@]2(C)O (stereo partly specified)
  A = -0.061	B = 7.0	C = -0.8	D = 7.1
CC1=CC(=O)c2c(O)cccc2C1=O
  A = 0.0855	B = 97.4*	C = x	D = 97.3*
CCCN(CCC)C1Cc2cc(OC)c(OC)cc2C1
  A = 0.128	B = -5.4	C = x	D = -1.5
Cc1ccc(-c2nc3ccc(C)cn3c2CC(=O)N(C)C)cc1
  A = 0.0157	B = -70.8	C = x	D = -29.8
COc1ccc2c(c1)/C(=C/c1cnc[nH]1)C(=O)N2
  A = 0.949	B = 2.9	C = 20.4	D = 30.5
C/C=C(\C)[C@H](O)[C@H](C)/C=C(C)/C=C/C/C(C)=C/Cc1[nH]c(OC)c(OC)c(=O)c1C
  A = -0.533	B = 55.4	C = -8.4	D = 96.2*
CN(C)Cc1c[nH]c2ccccc12
  A = -0.17	B = u	C = x	D = 10.8
c1ccc2sc(C3(N4CCCCC4)CCCCC3)cc2c1
  A = -1.96	B = 10.2	C = x	D = -10.1
CCOP(=S)(OCC)SCSP(=S)(OCC)OCC
  A = 0.027	B = -2.1	C = x	D = 13.9
Cc1ccc(NC(=O)c2cc(C)n(C(C)(C)C)n2)cc1
  A = -0.192	B = -181.7	C = -1.4	D = -25.0
CCC(=O)Nc1ccc(Cl)c(Cl)c1
  A = 0.00488	B = -68.7	C = x	D = -23.3
C[C@@H]([C@H](O)c1ccccc1)N(C)C
  A = -0.117	B = -9.6	C = x	D = 0.7
COC[C@H]1OC(=O)c2coc3c2[C@@]1(C)C1=C(C3=O)C2CCC(=O)[C@@]2(C)C[C@H]1OC(C)=O (stereo partly specified)
  A = -0.251	B = u	C = -14.4	D = 17.8

# The list is partial; count on the stated rates, not on these rows.
